# From PubChem
# BJeLR viab HTS: BJeLR cell viability loss, primary screen, luminescence, CellTiterGlo ATP. BJeLR fibroblasts viability, 48 h; HRASV12, hTERT and SV40 LT/ST transformed. viability loss activity score, % (concentration not given with the values). actives 0.64% (n = 30,000); in the data active means viability loss activity score above about 50%; about a fifth of its hits are not listed in these tables;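 further: higher score means fewer live cells and less ATP luminescence; stock transfer was 50 or 100 nL into about 30 µL; 0% = vehicle wells and 100% = a reference killing control; one replicate is shown; the record names a cut of 85%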
# A1 inhib: inducers of caspase activity in MEF A1-2A-BIM cells, primary screen, A1 inhibitor project, cell-based, CaspaseGlo luminescence; caspase-Glo luminescence, 3 h; percent of clofoctol signal, DMSO as zero; caspase activation, % (test concentration not listed); actives 0.51% (n = 21,000); AID 2241, 2010;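 active means most replicate scores above 10, or exactly half above 10 with mean activity above 10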;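 further: effector caspase 3 and 7 activity cleaving a DEVD luciferin substrate; 50 nL library stock added to about 30 µL; numbers are from one replicate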
# The depositor's hits bear a star; nt = not tested or not shown.
smiles	BJeLR viab HTS	A1 inhib
OCC1(CO)CSC(Nc2ccc(F)cc2)=N1	6.1	nt
C[C@H](CO)N1C[C@H](C)[C@@H](CN(C)S(=O)(=O)c2cn(C)cn2)Oc2ccc(NC(=O)C3CCCCC3)cc2C1=O	1.4	-0.9
C[C@@H]1CN([C@H](C)CO)C(=O)c2cccc(NS(=O)(=O)c3cn(C)cn3)c2O[C@@H]1CN(C)C(=O)Nc1ccc2c(c1)OCO2	0.3	nt
Cc1cc(C)c2nc(N3CCC(C(=O)N4CC(C)CC(C)C4)CC3)sc2c1 (stereo unspecified)	-2.1	1.5
Cc1nccc(-c2nn(-c3ccc(F)cc3)ccc2=O)n1	0.3	0.4
Cc1ccc(CNC(=O)Nc2ccccc2)n1C	-2.0	-1.2
C[C@H]1CN([C@@H](C)CO)C(=O)c2cc(NC(=O)CCCCCC(=O)Nc3ccccc3N)ccc2O[C@H]1CN(C)S(=O)(=O)c1cccs1	0.8	nt
N#Cc1ccc(C#CCOC(=O)Nc2ccc(Cl)cc2)cc1	3.5	-1.1
COc1ccc(S(=O)(=O)N(C)C[C@@H]2Oc3ccc(NS(=O)(=O)c4ccc(F)cc4)cc3C(=O)N([C@@H](C)CO)C[C@H]2C)cc1	-9.7	-0.1
NC1=NC(c2ccccc2)C(C(=O)c2ccccc2)N1 (stereo unspecified)	-7.5	-0.5
C[C@@H]1CN([C@H](C)CO)C(=O)c2cc(N(C)C)ccc2O[C@@H]1CN(C)CC1CCCCC1	3.3	-0.4
COc1ccc(C(=O)NC(=Nc2c(C)cccc2C)SC)cc1	0.6	0.7
CC(=O)N1CCc2cc(Br)cc(S(=O)(=O)CC(=O)N3CCc4ccccc43)c21	-5.2	nt
Cc1noc(C)c1NC(=O)N(C)C[C@H]1Oc2c(NS(=O)(=O)c3ccc(Cl)cc3)cccc2C(=O)N([C@H](C)CO)C[C@H]1C	-3.2	nt
CCOC(=O)c1c(C)nn(-c2ncccc2NC(=O)CCC(=O)O)c1C	4.7	1.1
Cc1ccc(C(=O)NC2CCCCNC2=O)cc1 (stereo unspecified)	7.5	-0.9
C[C@H](CO)N1C[C@H](C)[C@@H](CN(C)Cc2ccc(Oc3ccccc3)cc2)Oc2ccc(NC(=O)Nc3ccccc3)cc2C1=O	-2.4	-0.2
C[C@@H]1CN([C@H](C)CO)C(=O)c2cccc(NC(=O)Nc3ccc4c(c3)OCO4)c2O[C@H]1CN(C)C(=O)Nc1ccc(F)cc1	-3.0	nt
O=C(NC1CCN(C(=O)C2CCC2)CC1)C1CCCCC1	6.1	-0.1
Cc1noc(C)c1NC(=O)Nc1ccc2c(c1)C(=O)N([C@@H](C)CO)C[C@@H](C)[C@@H](CN(C)Cc1ccc3c(c1)OCO3)O2	1.5	-0.3

# Taken from above.
# `C[C@H](CO)N1C[C@H](C)[C@@H](CN(C)Cc2ccc(Oc3ccccc3)cc2)Oc2ccc(NC(=O)Nc3ccccc3)cc2C1=O` | A1 inhib = -0.2
# `N#Cc1ccc(C#CCOC(=O)Nc2ccc(Cl)cc2)cc1` | A1 inhib = -1.1

# In a second layout: entries from further up
# Value order – BJeLR viab HTS | A1 inhib
Cc1noc(C)c1NC(=O)Nc1ccc2c(c1)C(=O)N([C@@H](C)CO)C[C@@H](C)[C@@H](CN(C)Cc1ccc3c(c1)OCO3)O2
 : 1.5 | -0.3
COc1ccc(S(=O)(=O)N(C)C[C@@H]2Oc3ccc(NS(=O)(=O)c4ccc(F)cc4)cc3C(=O)N([C@@H](C)CO)C[C@H]2C)cc1
 : -9.7 | -0.1

# Next records
smiles	BJeLR viab HTS	A1 inhib
CCC1(C)CC(=O)NC1=O (stereo unspecified)	-5.4	-1.4
C[C@H]1CN([C@@H](C)CO)C(=O)c2cccc(NC(=O)C3CC3)c2O[C@@H]1CN(C)CC1CC1	-2.1	nt
COc1ccc(S(=O)(=O)Nc2ccc3c(c2)C(=O)N([C@@H](C)CO)C[C@H](C)[C@@H](CN(C)C(=O)Nc2ccc4c(c2)OCO4)O3)cc1	1.8	-0.2
Cc1ccc(C)c(C(=O)CSc2nc3nc(C)cc(C)c3c(=O)[nH]2)c1	0.3	0.1
COc1ccc(-c2nc3nnc(C)n3[nH]2)c(OC)c1	-0.4	-1.0
CNC(=O)CSCc1cnn(-c2ccccc2)c1-n1cccc1	-2.4	0.4
O=C(CSc1ncnn1CC(=O)c1ccc(Br)cc1)c1ccc(Br)cc1	-0.8	0.0
C=CCn1c(=N)c(C#N)cc2c(=O)n3ccccc3nc21	-1.5	0.2
C=CCN=C1CC(C)(C)CC(=O)/C1=C(/O)CCC(=O)OC	0.9	nt
CCOC(=O)c1c(C)oc(=O)c(Br)c1C	-7.4	0.5
C[C@@H]1CN([C@H](C)CO)C(=O)c2cc(N(C)C)ccc2O[C@H]1CN(C)S(=O)(=O)c1ccc(Cl)cc1	-2.1	-0.3
C[C@H]1CN([C@@H](C)CO)C(=O)c2cccc(NS(=O)(=O)c3ccc(F)cc3)c2O[C@H]1CN(C)C(=O)Nc1ccccc1	-0.1	nt
Cc1cc2cc(CNC(=O)C3CCCCC3)ccc2n1C	-1.1	nt
C[C@@H]1CN([C@H](C)CO)C(=O)c2cc(NS(=O)(=O)c3ccc(Cl)cc3)ccc2O[C@H]1CN(C)C(=O)Nc1ccc(F)cc1	-1.1	0.0
COc1ccc(NC(=O)Nc2ccc3c(c2)C(=O)N([C@H](C)CO)C[C@H](C)[C@H](CN(C)S(C)(=O)=O)O3)cc1	-1.2	-0.3
CC(=O)Oc1c(I)c(=O)n(C)c2ccccc12	22.2	-0.4

# Arranged by the number under A1 inhib (highest first): 5 from the list above.
canonical_smiles	A1 inhib
CCOC(=O)c1c(C)nn(-c2ncccc2NC(=O)CCC(=O)O)c1C	1.1
CCOC(=O)c1c(C)oc(=O)c(Br)c1C	0.5
Cc1ccc(C)c(C(=O)CSc2nc3nc(C)cc(C)c3c(=O)[nH]2)c1	0.1
C[C@@H]1CN([C@H](C)CO)C(=O)c2cc(N(C)C)ccc2O[C@H]1CN(C)S(=O)(=O)c1ccc(Cl)cc1	-0.3
C[C@@H]1CN([C@H](C)CO)C(=O)c2cc(N(C)C)ccc2O[C@@H]1CN(C)CC1CCCCC1	-0.4

# Part of the list above, with values under each structure.
# Every second line gives: BJeLR viab HTS	A1 inhib
> C[C@H]1CN([C@@H](C)CO)C(=O)c2cccc(NS(=O)(=O)c3ccc(F)cc3)c2O[C@H]1CN(C)C(=O)Nc1ccccc1
→ -0.1	nt
> Cc1cc2cc(CNC(=O)C3CCCCC3)ccc2n1C
→ -1.1	nt
> C[C@@H]1CN([C@H](C)CO)C(=O)c2cc(NS(=O)(=O)c3ccc(Cl)cc3)ccc2O[C@H]1CN(C)C(=O)Nc1ccc(F)cc1
→ -1.1	0.0
> COc1ccc(NC(=O)Nc2ccc3c(c2)C(=O)N([C@H](C)CO)C[C@H](C)[C@H](CN(C)S(C)(=O)=O)O3)cc1
→ -1.2	-0.3

# These rows are one share of the data. The share of hits here may be higher or lower than overall.
